Source: PubChem (National Center for Advancing Translational Sciences (NCATS))
Sfp PPTase inh = inhibitors of Bacillus subtilis Sfp phosphopantetheinyl transferase. Biochemical Sfp PPTase activity, qHTS. Potency, µM, inactives show max response, negative = inhibition, usual class: inhibitors. Q9F4F7. actives 3.5% (n = 310,000); active = well fitted inhibition curve with a large enough effect; inconclusive = small, poorly fitted or top-dose-only effect, or another doubt; inactive = no such curve, though single readings can be large or run the other way;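 note: the enzyme is Sfp with the accession as filed and its product quenches rhodamine fluorescence; potency is the fitted concentration of half-maximal effect; 0% = enzyme reaction without inhibitor and -100% = no enzyme wells; top concentration of the series not given in the record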
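Fluorescence-quenching assay with 15 nM Sfp, 5 uM rhodamine-CoA and 12.5 uM BHQ-2-labelled ybbR peptide in pH 7.6 Hepes/MgCl2 buffer. Enzyme was pre-incubated with compound for 15 min at room temperature. Rate was taken from the 30-min fluorescence change (525/598 nm).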
gsp antagonist = antagonizes gsp, the McCune-Albright syndrome mutation; gsp-mutant cells, cAMP HTRF, 30 min; control for the full effect not named in the record; Potency, µM (top dose mostly 76.9 µM), without a hit: at the top dose activity change, negative = inhibition, most hits filed as inhibitors; actives 0.4% (n = 340,000); AID 624288; active = falling curve of any shape with a large fitted effect; inconclusive = falling curve, mostly with a smaller effect; inactive = flat or rising curve; cell line not stated here;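 note: intracellular cAMP measured with PDE inhibitor Ro 20-1724 present during compound exposure; potency is the fitted concentration of half-maximal effect; % is set by controls: 0 for no effect and ±100 for the full control effect; nearly all actives have a fitted effect of over 65% in size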
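HTRF cAMP measurement after 30 min RT detection following 30 min, 37C compound treatment alongside […] (added as 300 uM solution) in G418-selected cells seeded at 2000/well and grown 16–24 h.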
ClpP mod = qHTS Assay for Activators of ClpP. ATP-dependent Clp protease proteolytic subunit (Bacillus subtilis (strain 168)), P80244. purified B. subtilis ClpP, FRET peptide cleavage, 20 min. Potency, µM (highest dose often 57.5 µM), for the others: top-dose activity change, negative = active. actives 1.9% (n = 340,000). AID 651965, 2013; active = well fitted falling curve with a large enough effect; inconclusive = small, poorly fitted or top-dose-only effect; inactive = no such curve, though single readings can be large or run the other way; note: potency is the fitted concentration of half-maximal effect; the source files actives as falling curves though it sought activators and does not explain the sign; nearly all actives have a fitted effect of over 65% in size; many hits overshoot -100%
Target sequence (P80244 whole entry, looked up): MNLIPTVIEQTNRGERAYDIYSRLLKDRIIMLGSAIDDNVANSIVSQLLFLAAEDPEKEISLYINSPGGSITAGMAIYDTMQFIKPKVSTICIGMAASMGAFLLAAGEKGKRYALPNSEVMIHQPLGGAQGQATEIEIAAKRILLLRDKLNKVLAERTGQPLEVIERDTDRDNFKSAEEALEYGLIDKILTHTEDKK
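ClpP 10 microg/mL final, pH 8 Tris/KCl buffer with BSA, glycerol, Tween-20; compound pinned in; FRET-FV substrate; RT 20 min; Ex320/Em430; ΔFRET vs ADEP 5.8 microM, DMSO, no enzyme.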
CtBP-E1A blk = inhibitors of CtBP/E1A interaction | actives 0.49% (n = 340,000) | AID 651724 | activity change, % (test concentration not listed) | AlphaScreen GST-E1A/His-CtBP binding, 1536-well; hits give low values; control for the full effect not named in the record; in the data active means activity change below about -65%; inconclusive means about -30% to -65%; inactive means above about -30%; note: % is set by controls: 0 for no effect and ±100 for the full control effect; compound concentration not given in the record
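Steps: dispense buffer (Tris pH 8.0, NaCl 300 mM, TCEP 1 mM, BSA, Tween 20); add 5X protein mix (GST-E1A, His-CtBP, 125 nM each); pin 23 nL compound; 2 h at 37 °C, dark; add 5X beads (50 ug/mL); 1 h; read.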
Menin MLL FP FL = displaces fluorescein MLL peptide from human menin; Fluorescence polarization, fluorescein-MLL peptide displacement from menin; FP activity change, % at 61.4 µM; 290,000 tested, under 10 active; inconclusive = falling polarisation curve, or a change in total fluorescence; inactive = total fluorescence flat and polarisation flat or rising; no compound was filed as active; the % refers to the polarisation; negative = inhibition;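 note: % of control where 0% means no effect; inhibitors lower the polarisation; unlabelled MLL peptide was the positive control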
gsp ag = agonists of gsp mutant (McCune-Albright syndrome) | Potency, µM (series often up to 76.9 µM), inactives show at the highest dose activation (cAMP increase), hits mostly activators | AID 624287 | gsp mutant cells, cAMP HTRF, 30 min; control for the full effect not named in the record | actives 0.13% (n = 340,000); active = well fitted activation curve with a large enough effect; inconclusive = small, poorly fitted or top-dose-only effect, or another doubt; inactive = no such curve, though single readings can be large or run the other way; cell line not stated here;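 note: phosphodiesterase inhibitor Ro 20-1724 added with compounds to block cAMP breakdown; potency is the fitted concentration of half-maximal effect; nearly all actives have a fitted effect of over 60% in size; about a fifth of the inactives were tested at one dose only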
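Cells in DMEM/10% FBS with G418 were pretreated with compounds in DMSO plus […] (300 uM stock) for 30 min at 37C. cAMP was measured by HTRF (cAMP-d2 plus anti-cAMP antibody-K) after 30 min at room temperature.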
TRPV1 PAM = potentiators of human vanilloid receptor 1 (TRPV1) | actives 0.02% (n = 320,000) | Q8NER1 | TRPV1-expressing cells, Fluo-8 calcium influx, capsaicin EC20 potentiation; host cell line not named in the record; control for the full effect not named in the record | potentiation, % at 8.33 µM; active means potentiation above 80%; inconclusive means 30% to 80%; inactive means below 30%; note: 0% is about no effect
Target sequence (Q8NER1 whole entry, looked up): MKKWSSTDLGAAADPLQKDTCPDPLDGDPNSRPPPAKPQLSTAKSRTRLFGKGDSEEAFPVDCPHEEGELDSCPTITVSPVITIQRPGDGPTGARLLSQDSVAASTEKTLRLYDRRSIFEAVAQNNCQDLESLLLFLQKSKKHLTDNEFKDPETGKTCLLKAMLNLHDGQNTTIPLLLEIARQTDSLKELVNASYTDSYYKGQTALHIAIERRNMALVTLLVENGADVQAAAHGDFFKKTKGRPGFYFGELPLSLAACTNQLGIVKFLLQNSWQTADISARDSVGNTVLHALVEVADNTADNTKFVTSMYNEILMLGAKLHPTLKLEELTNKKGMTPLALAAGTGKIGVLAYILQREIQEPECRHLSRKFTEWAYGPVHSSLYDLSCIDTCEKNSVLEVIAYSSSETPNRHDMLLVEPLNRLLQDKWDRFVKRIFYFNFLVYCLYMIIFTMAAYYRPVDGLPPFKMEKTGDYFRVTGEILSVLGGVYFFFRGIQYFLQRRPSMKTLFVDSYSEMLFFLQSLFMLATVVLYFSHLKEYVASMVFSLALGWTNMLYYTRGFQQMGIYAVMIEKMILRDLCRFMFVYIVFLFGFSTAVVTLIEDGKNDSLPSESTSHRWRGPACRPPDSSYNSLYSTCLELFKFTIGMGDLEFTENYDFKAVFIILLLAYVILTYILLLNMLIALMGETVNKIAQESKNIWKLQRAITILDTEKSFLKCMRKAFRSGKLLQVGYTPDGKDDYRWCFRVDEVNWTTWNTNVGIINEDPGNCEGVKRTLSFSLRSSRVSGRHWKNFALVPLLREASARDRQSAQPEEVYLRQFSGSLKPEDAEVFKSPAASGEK
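Cells expressing TRPV1 were dye-loaded with Fluo-8 and read kinetically: 10 s baseline, 3 min after compound (agonist portion), then 2 min after EC20 capsaicin (allosteric enhancer portion). Calcium-bound dye fluorescence at 480/520 nm.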
* marks the source's active call; other numbers are inactive results; ? = inconclusive; . = not tested or not shown; & = joins results of further samples; [ ] = dose if it differs, or a comment.

SMILES	Sfp PPTase inh	gsp antagonist	ClpP mod	CtBP-E1A blk	Menin MLL FP FL	gsp ag	TRPV1 PAM
COC(=O)C1CN(S(=O)(=O)c2cc(OC)ccc2OC)CCS1 (stereo not drawn)	6%	11%	.	-20	0.7	-44%[15.4 µM]	16
Cc1ccccc1C(=O)Nc1nnc(-c2ccc(C(C)(C)C)cc2)s1	17%	32%[activator]	?	7	3.4	24%	83*
O=C(CCn1cccn1)N1CCCC(Nc2ccc(F)c(F)c2)C1 (stereo not drawn)	.	.	-4.5%	-17	.	?	.
N#Cc1nc(Cc2cccc3ccccc23)oc1NCCN1CCCCC1	0%	5%	0.9%	-14	-0.3	27%	-4
CCN(CC(=O)NCc1ccc(Cl)cc1)C(=O)CSc1cccc(C(F)(F)F)c1	.	-14%	2.0%	5	.	6%	1
O=C(COC(=O)c1cccs1)NCc1ccco1	-3%	10%	-13%	-3	2.6	-1%	2
CN(C)c1cc(Nc2cccc(O)c2)c([N+](=O)[O-])c2nonc12	7%	-9%	.	-20	?	8%[15.4 µM]	-29
CCN(Cc1ccccc1)C(=O)c1nn(-c2ccc(OC)cc2)c(=O)c2c1c1ccccc1n2C	5%	-16%	4.2%	-1	-1.4	?	7
CCN(Cc1ccccc1)S(=O)(=O)c1c(N)n(C)c(=O)n(C)c1=O	12%	6%	1.4%	12	.	20%	0
CCOc1cc(NC(=S)NCCCN2CCOCC2)c(OCC)cc1NC(=O)c1ccccc1	14%	2%	.	7	-5.1	-25%	-3
O=C(COc1ccc(Cl)cc1)NCCS(=O)(=O)N1CCN(c2ccccc2F)CC1	2%	14%	-0.4%	8	-0.4	7%	-20
CCOc1ccc(NC(=O)C2CCCN(S(=O)(=O)c3ccc4c(c3)CCCN4C(C)=O)C2)cc1 (stereo not drawn)	-5%	-20%	-2.9%	-28	-5.8	-73%[inhibitor]	2
Clc1ccc(CSc2nnc(/C=C/c3ccccc3)o2)cc1	4%	7%	?	8	-6.8	10%	7
CCn1cnc2c1c(=O)n(Cc1cccc([N+](=O)[O-])c1)c(=O)n2Cc1ccccc1	3%	-11%	.	-6	6.5	4%	?
Cc1ccc(S(=O)(=O)N2CCN(C(=O)c3cc(=O)[nH]c4ccccc34)CC2)c(C)c1	-1%	-23%	?	-11	4.1	-32%[inhibitor]	.
CC(=O)c1ccccc1NC(=O)c1ccc2c(c1)NC(=O)C(C)S2 (stereo not drawn)	.	-16%	.	-10	.	-16%[15.4 µM]	12
COc1ccc(NC(=O)CNCCC2=CCCCC2)cc1	3%	4%	-1.4%	4	1.1	3%	0
COc1ccc(OCCn2c(NC(=O)c3ccco3)nc3ccccc32)cc1	9%	16%	-21%	-12	1.7	0%	14
O=C(CSc1cccc2cccnc12)Nc1ccccc1F	?	5%	.	?	0.7	-26%	4
COc1ccc(C(CCN2CCCC(C)C2)c2c(OC)cc(OC)c3c2OC(=O)CC3c2cc(OC)c(OC)c(OC)c2)cc1 (stereo not drawn)	2%&2%	0%	-0.7%	-6	-0.8&1.8	.	20
O=C(NC1CC1)C1CCN(c2ccc(S(=O)(=O)N3CCOCC3)cc2Cl)CC1	13%	0%	-0.8%	7	1.0	-13%	.
COc1ccc([C@@H]2C[C@@H](c3ccccc3)Oc3cc(OC)c(OC)c(OC)c32)cc1	7%	4%	-2.9%	-18	-0.1	.	-18
Cc1c(C(=O)N2CCN(CCc3ccccn3)CC2)oc2ccc(F)cc12	10%	3%	-2.7%	.	.	?	7
CCOCCCNC(=S)N1C2CCC1CC(NC(=O)NC1CCCCC1)C2 (stereo not drawn)	10%	5%	-11%	3	1.1	-33%	-5
O=C(C1CCN(Cc2ccc(F)cc2)CC1)N(CCO)Cc1ccccc1	-3%	14%	0.6%	0	-1.3	?	-10

(list continues)
SMILES	Sfp PPTase inh	gsp antagonist	ClpP mod	CtBP-E1A blk	Menin MLL FP FL	gsp ag	TRPV1 PAM
Cc1ccc(-c2c(C#N)c(N)nc3c2CCCCCC3)o1	3%	-8%	-10%	0	-3.3	-54%[inhibitor]	-2
Clc1ccc(C=NC23CN4CN(CN(C4)C2)C3)cc1	6%	1%	-2.2%	-5	2.9	-49%[inhibitor]	11
CCC(=O)n1nc(-c2cccnc2)nc1NCc1ccc(OC)cc1	13%	-12%	2.0%	3	2.4	-30%[inhibitor]	-2
Cc1cccc(N2C(=O)C(Oc3ccc(Cl)cc3Cl)C2C(=O)O)c1C (stereo not drawn)	?	5%	-7.5%	6	.	?	8
CCN1CCN(c2nc3c(c(=O)[nH]c(=O)n3C)n2Cc2cccc(C)c2)CC1	.	.	-1.3%	0	.	0%	.
Cc1ccccc1Cn1cc(NC(=O)c2nn(C)cc2Cl)cn1	-9%	-10%	-1.3%	12	1.5	7%[15.4 µM]	-14
O=[N+]([O-])c1ccc(S(=O)(=O)NN=Cc2ccc(Cl)c(Cl)c2)cc1	.	-17%	.	-3	.	?	.
CN(C)CCN(C)Cc1c2ccccc2c(CN(C)CCN(C)C)c2ccccc12	2%	?	-20%	-16	?	-25%[15.4 µM]	7
Cc1ccc(NC(=O)Cc2noc3ccccc23)nc1	12%	-1%	-1.4%	2	-1.2	-6%	?
Cc1cc(Nc2ccc3c(c2)OCCO3)c2cccc(C)c2n1	-9%	9%	32µM*	-7	0.6	-4%[15.4 µM]	3
COc1ccc(N2CC(NS(=O)(=O)c3cccs3)CC2=O)cc1 (stereo not drawn)	.	-2%	.	2	.	9%[15.4 µM]	0
CCC(C)(C)NC(=O)C(c1cccc(OC)c1OC)N(Cc1ccccc1)C(=O)CCC(=O)Nc1cc(C)on1 (stereo not drawn)	28%	-13%	.	0	5.6	-68%[15.4 µM]	7
Cc1ccccc1-c1noc(CCC(=O)NCc2ccco2)n1	-13%	-21%	-28%	12	3.6	4%[15.4 µM]	-4
CC(=O)Nc1ccc2[nH]c(C)c(CC=C(Cl)Cl)c(=O)c2c1	12%	12%	32µM*	-10	5.1	8%	1
CSc1ccc(Cl)c(C(=O)NCc2ccco2)c1	-18%	-6%[15.4 µM]	-8.9%	6	-2.3	1%	-1
COC(=O)c1ccc(CCc2cc(O)c(Br)cc2O)cc1	.	-6%	?	-3	.	-4%	.
CC1(C)Cc2c(c(=S)nc(-c3ccccc3)n2CCOCCO)CO1	-6%	-5%	0.9%	-2	-0.6	6%	2
CC(=O)N1CCN=C1SCc1ccccc1Cl	4%	-2%	-5.6%	-22	-1.9	-39%[inhibitor]	10
CCOc1cc(S(=O)(=O)NCc2cccnc2)c(C)cc1C	19%	-7%	0.1%	.	0.0	-6%	0
CCn1c2ccccc2c2cc(/C=N/n3c(C)nnc3C)ccc21	50µM*	3%	?	7	1.0	-32%[inhibitor]	2
CCOc1ccc(OCC)c(NC(=O)C2CCCN(S(=O)(=O)c3ccc(C)cc3)C2)c1 (stereo not drawn)	-5%	?	-3.9%&-1.7%	-12	-0.8	8%	1
CCOC(=O)NC(=O)/C(C=Nc1ccc(Cl)c(Cl)c1Cl)=C(\C)O	-2%	1%	-0.5%	.	3.1	?	0
COc1ccc(CNC(=O)COC(=O)C(CCSC)NC(=O)c2ccco2)cc1OC (stereo not drawn)	.	-9%	-0.8%	2	.	?	-5
O=C(CNC(=O)C(c1ccccc1)c1ccccc1)N/N=C/c1ccc(O)c([N+](=O)[O-])c1	-18%	-25%	-0.2%	-11	4.7	-2%[15.4 µM]	?
COc1ccc(C2=CC(=O)C[C@H](c3ccc(F)cc3)C2)c(OC)c1	.	-21%	-3.9%	0	.	-5%	3

Going on with the list:
SMILES	Sfp PPTase inh	gsp antagonist	ClpP mod	CtBP-E1A blk	Menin MLL FP FL	gsp ag	TRPV1 PAM
Cc1nc(C(=O)N2CCCC(N3CCN(c4ccc(F)cc4)CC3)C2)cs1 (stereo not drawn)	.	.	-1.0%	2	.	-28%	.
CC(=O)c1ccc(-c2ccc(C(=O)N(C)Cc3nc4ccccc4c(=O)[nH]3)o2)cc1	.	?	3.9%	.	.	1%	-16
COc1ccc(N2C(=O)N3[C@H](c4ccc(Cl)cc4)[C@@H]4C(=O)N(C5CCCCC5)C(=O)[C@@H]4[C@]3(Cc3ccc(Cl)cc3)C2=O)cc1	15%	-1%	-0.2%	3	0.8	18%	16
O=C(NCc1ccccc1Cl)NCc1ccccc1Cl	-5%	2%	-0.9%	.	3.9	-21%	0
O=C(NC(NC(=S)N1CCOCC1)C(Cl)(Cl)Cl)c1ccc(Cl)cc1 (stereo not drawn)	19%	-1%	1.3%	-11	4.5	?	1
CSc1nnc(-c2cccc(NC(=O)c3ccccc3)c2)n1C	1%	-2%	0.5%	-2	1.0	6%[15.4 µM]	-6
O=[N+]([O-])c1ccccc1N/N=C\c1ccccc1Cl	8%	3%	-0.7%	-8	1.0	-16%	2
CC(=O)Nc1ccc(NC(=O)C(C)OC(=O)c2cccc(S(=O)(=O)N3CCCCCC3)c2)cc1 (stereo not drawn)	.	16%	1.5%	2	.	-4%	-9
O=C(COC(=O)c1cncc(Br)c1)Nc1ccc2c(c1)OCO2	9%	?	.	-4	-1.2	-1%[15.4 µM]	?
CC(C)(C)OC(=O)N1CCC[C@H]1C(=O)N/N=C/c1cccc2cccnc12	45µM*	-10%	0.3%	?	4.8	-2%[15.4 µM]	20
c1ccc(-c2nnc(-c3ccccn3)c(-c3ccccn3)n2)nc1	?	12%	-0.3%	?	-1.7	-3%[15.4 µM]	11
Cc1nc(-c2ccccc2)cn(O)c1=O	-26%	-1%	?	.	0.4	1%	-3
Cc1ccc(-n2c3c(c(=O)[nH]c2=O)C(C(F)(F)F)(C(F)(F)F)NC(=O)N3)cc1	4%	-6%	-3.1%	-18	-1.9	5%	20
C=CC[C@@H](CC(=O)NCCO)C(=O)N[C@@H](COC(=O)[C@@H](CC=C)CC(=O)OC(C)(C)C)Cc1ccccc1	.	2%	-1.0%	-8	.	1%	.
O=C(NC1CCCCC1)C(c1ccccn1)N(C(=O)c1csnn1)C1CCCCC1 (stereo not drawn)	20%	2%	.	-23	-2.1	-1%[15.4 µM]	-20
